Compound activity (PubChem BioAssay)
CSC inhib: blocks cancer stem cells. inhibition, % at 7.5 µM. cancer stem cell-like cells viability, luminescence. 300,000 compounds, 1.1% hits;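 active = mean at 75% or more and at least half the replicates too; inconclusive = mean and replicates disagree; tested in HMLE shEcad cells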;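 note: 0% = median of negative and 100% = median of positive control wells; the first replicate is given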
Env fusion inh: inhibitors of HIV Env-mediated cell fusion; 360,000 compounds, 1.1% hits; inhibition, % at 12.3 µM; HeLa-JRFL Env/CEM21 cell fusion, luciferase;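 active = mean replicate inhibition score of at least 50 and every replicate individually at or above 50; inconclusive = only one of the two criteria met; inactive = mean below 50 and not all replicates reaching 50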;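 note: 0% = plate neutral controls and 100% = maraviroc near 300 nM; one replicate is shown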
eIF4H FP inh: inhibitors of RNA binding by human eIF4H; Q15056; eIF4H fluorescence polarization binding assay; inhibition, % at 35 µM; 290,000 compounds, 0.94% hits; AID 2012;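 active = 50% or more with normal probe brightness, or confirmed in later tests; inconclusive = above 50% with abnormal brightness, or retests that disagree; inactive = below 50% or failed in later tests; about a fifth of its hits are not listed in these tables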;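 note: calls also rest on retests at 20 µM and on dose response follow-up; 0% = protein and probe with vehicle and 100% = probe without protein; strong numbers were not always called active; many hits fall short of the cut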
PABP FP inh: blocks human PABP binding to poly(A) RNA; fluorescence polarization; 290,000 compounds, 1% hits; P11940; inhibition, % at 35 µM;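 active = 50% or more with normal probe brightness, or confirmed in later tests; inconclusive = above 50% with abnormal brightness, or retests that disagree; inactive = below 50% or failed in later tests; about a fifth of its hits are not listed in these tables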;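 note: calls also rest on retests at 20 µM and on dose response follow-up; controls were probe without protein and protein plus probe with vehicle; some compounds called inactive have numbers as strong as hits; many hits fall short of the cut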
MT1-MMP act inh: inhibitors of human MT1-MMP activation; P50281; 360,000 compounds, 0.061% hits; GFP/RFP ratio change, % at 20 µM; HT1080 RFP-PRO-GFP cells, GFP/RFP ratio fluorescence, overnight; percent of plate control window, DMSO zero;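 active = GFP/RFP ratio change of at least 30% with cell ATP level not reduced by more than half and red fluorescence within 50% of control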; note: strong numbers were not always called active
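Assay system: RFP-PRO-GFP reporter HT1080 cells; read-out basis: GFP/RFP fluorescence ratio; benchmarks: DMSO wells and RFP-L50D-GFP cells; doses: 20 µM single dose, 1% DMSO; schedule: overnight cell settling, then overnight compound exposure, 37 °C, 5% CO2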
UUG fidelity: modulators of start codon recognition fidelity in yeast; 350,000 compounds, 0.13% hits; S. cerevisiae UUG-firefly luciferase reporter, luminescence/redox ratio; AID 602363; activity score, % at 18.7 µM;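 active = replicate mean at a twofold rise or more, about +100% in these data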;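 note: firefly luciferase made from a UUG start codon reports start codon fidelity; reporter light over untreated wells divided by growth signal over untreated wells; some hits fall short of that in this replicate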
Rce1 inhib: inhibitors of yeast Ras-converting enzyme; Q03530; yeast membranes, quenched prenylated peptide cleavage fluorescence; calls only; 290,000 compounds, 0.27% hits; AID 2563;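 active = fall in fluorescence gain of 50% or more versus controls, with final raw signal at or below 3038400; inconclusive = same 50% fall but final raw signal above 3038400; inactive = fall in fluorescence gain under 50%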;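 note: plate controls were neutral control wells for no effect and wells lacking membranes for full effect; tested at 10 µM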
Target sequence (Q03530 whole entry, looked up): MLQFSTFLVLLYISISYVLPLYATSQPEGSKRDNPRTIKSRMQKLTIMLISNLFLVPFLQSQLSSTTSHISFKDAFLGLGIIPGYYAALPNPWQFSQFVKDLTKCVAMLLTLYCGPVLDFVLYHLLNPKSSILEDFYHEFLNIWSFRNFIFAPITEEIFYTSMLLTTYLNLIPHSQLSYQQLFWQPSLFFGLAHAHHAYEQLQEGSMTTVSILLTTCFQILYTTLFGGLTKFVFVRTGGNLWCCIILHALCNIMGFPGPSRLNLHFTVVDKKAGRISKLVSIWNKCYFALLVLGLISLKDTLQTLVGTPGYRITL
eIF4H FP inh retest: recorded beside eIF4H FP inh, whose call it bears; inhibition, %; compound at 20 µM; confirmation average;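 mean of two retest wells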
PABP FP inh retest: further read-out of PABP FP inh, marked with its call; inhibition, %; compound at 20 µM; confirmation repeats;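 mean of two retest wells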
MT1-MMP act inh RFP: further read-out of MT1-MMP act inh, marked with its call; RFP signal change, %; measured here: RFP expression control read;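 0 = vehicle wells; hits needed this value within 50% of zero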
* hit, by the source's call; i = inactive; ? = inconclusive; . = not tested or not shown; & = joins results of further samples; [ ] = dose if it differs, or a comment. An excerpt. The share of hits here may be higher or lower than overall.

SMILES	CSC inhib	Env fusion inh	eIF4H FP inh	PABP FP inh	MT1-MMP act inh	MT1-MMP act inh RFP	UUG fidelity	Rce1 inhib	others
Clc1ccc(CSc2snnc2-c2ccccc2)c(Cl)c1	9	-86	-6	-9	3	6	-5	i
OC(c1ccccn1)C(O)c1ccccn1 (configuration not stated)	.	-15	.	.	0	4	-12	.
O=C(NCc1ccccn1)c1cccc(S(=O)(=O)Nc2ccc(SC(F)F)cc2)c1	-13	.	.	.	0	-4	-18	i
COc1cc(S(=O)(=O)N(Cc2ccccc2)CC2CCCO2)ccc1-n1cnnn1 (configuration not stated)	-7	19	-12	6	5	5	-4	i
CCCOc1ccc(C(=O)c2nc3c(n2O)CCCC3)cc1	-11	19	2	-3	3	-3	-11	i
CC(=O)c1cccc(NC(=S)NC2CC2)c1	-11	-5	15	4	-4	-2	-10	i
CCc1nc2ccc(C(=O)Nc3cccc(NS(C)(=O)=O)c3)cn2c1N(C=O)CCC(C)C	.	-12	.	.	0	1	-14	.
Brc1cccc(-c2nnc3n2CCC3)c1	-1	.	-4	-8	2	4	-24	i
CC(=O)c1ccc(NC(=O)c2cnn3ccccc23)cc1	.	45	-14	7	-2	-1	-38	i
NS(=O)(=O)c1ccc(NNC(=O)c2sccc2Cl)cc1	6	1	4	-1	-2	1	-17	i
COc1cc(C)c(NC(=S)Nc2cccc(Cl)c2)cc1OC	-14	-6	-12	-23	5	6	.	i
O=C(Cc1ccccc1)N1CCC(O)(c2cccnc2)CC1	-5	-36	-2	-4	4	1	-14	i
O=c1c2cc(N3CCOCC3)ccc2[nH]c(=S)n1Cc1ccc(Cl)cc1	49	-36	4	16	3	-9	-18	i
COc1ccccc1C(=O)Nc1cccc(C(=O)N2CCOCC2)c1	-4	.	0	-10	-2	2	-13	i
CC(=O)c1sc(NS(=O)(=O)c2ccc(C)cc2)nc1-c1ccccc1	.	18	0	14	-6	-1	-10	i
COc1cccc(CN2CCNC(=O)C2CC(=O)N(C)C2CCOCC2)c1OC (configuration not stated)	-8	-16	3	8	-1	0	-20	.
CC(=O)N1CCN(Cc2nc3cc(NC(=O)Cn4nc(C)c5ccccc5c4=O)ccc3n2C)CC1	-6	-88	1	-7	6	2	-19	i
Cc1cc(C(=O)N/N=C/c2ccc3ccccc3c2)n[nH]1	2	-25	-3	-6	.	.	-9	i
COc1cccc(CN2CC(C(=O)N3CCCCCCC3)CCC2=O)c1 (configuration not stated)	-8	-5	-2	-1	2	2	-1	i
COc1ccc(OC)c(N(CC(=O)Nc2ccccc2)S(C)(=O)=O)c1	-8	.	-1	11	3	4	-2	i
CCCS(=O)(=O)c1c(S(=O)(=O)CCC)c2c(C(N)=O)cccn2c1C(=O)c1ccc(F)cc1	.	21	3	-5	-4	1	-31	i
CC(=O)N(CCc1ccccc1C)Cc1cc2cc3c(cc2[nH]c1=O)OCO3	-1	.	-10	8	1	5	-1	i
CC(Oc1ccc(Cl)cc1)/C(N)=N/O (configuration not stated)	-16	-8	-6	5	-2	0	.	i
Cc1cc(C)cc(N2C(=O)CN(Cc3ccccc3)C2=S)c1	-9	-19	0	1	-1	0	-6	i
CCOc1ccc(CNC(=O)C(=O)c2cn(CC(=O)N3CCOCC3)c3ccccc23)cc1OC	.	4	2	-2	1	4	3	i

Next structures follow.
SMILES	CSC inhib	Env fusion inh	eIF4H FP inh	PABP FP inh	MT1-MMP act inh	MT1-MMP act inh RFP	UUG fidelity	Rce1 inhib	others
COc1ccc(CNc2nc3ccccc3n2Cc2ccc(Cl)cc2)cc1OC	-4	.	-2	-2	-7	-20	.	i
CCCCNc1nc2ccccc2nc1NS(=O)(=O)c1ccc(F)cc1	10	7	2	5	5	-4	-13	i
CC(=O)NS(=O)(=O)c1ccc(NC(=O)CSc2ccccc2)cc1	-9	6	0	-3	-3	3	-8	i
CCS(=O)(=O)n1nc(-c2ccco2)nc1N	-18	4	-3	-15	1	2	.	i
O=C(CO/N=C/c1cccc([N+](=O)[O-])c1)NC1CCCCCC1	-11	7	3	-4	2	-1	1	i
Cc1ccc(Cc2c(-c3ccco3)nc3ccc(Br)cn23)cc1	.	-22	.	.	-5	-3	-25	.
O=C(CN1CCOCC1)Nc1cccc(Cl)c1Cl	-8	-20	-14	-1	0	-4	8	i
CCOCCCn1c(=S)[nH]c2cc(C(=O)NC3CCCCC3C)ccc2c1=O (configuration not stated)	9	2	-8	9	3	-2	-12	i
COc1nccnc1NS(=O)(=O)c1ccc(NC(=S)NC(=O)/C=C/c2ccc(F)cc2)cc1	-2	.	-7	-4	0	-2	.	i
COc1ccc(CC(=O)NC(C)c2nnc(SCC(=O)Nc3ccccc3F)n2C)cc1 (configuration not stated)	-5	-10	3	-6	2	3	.	i
COc1ccc(Cl)cc1NC(=O)COC(=O)Cc1cc(OC)c(OC)c(OC)c1	-12	17	.	.	-1	2	-3	.
COC(=O)c1cccc(OCC(O)Cn2cnc3cc(C)c(C)cc32)c1 (configuration not stated)	-4	-7	-9	-1	-3	-7	-1	i
CC1CN(C(=O)N2c3ccccc3Sc3ccccc32)C(C)CC1=O (configuration not stated)	17	-9	2	5	1	-1	-4	i
CNC(=O)/C(C#N)=C/c1ccc(-c2nc3ccccc3s2)o1	-8	-43	5	-2	-14	3	-13	i
CCOC(=O)C1(Cc2cccc(Cl)c2)CCCN(C(=O)c2ccc(COC)s2)C1 (configuration not stated)	8	30	2	2	1	-1	9	i
CC(=O)Nc1ccc(OCCC[n+]2ccccc2)cc1	-8	-11	-9	8	-1	-2	.	.
CCN1CCCC1CNC(=O)c1csc2c1CCCC2 (configuration not stated)	-23	.	-22	-2	-3	5	.	i
O=C(Nc1nnc(-c2cccs2)o1)c1cccc(Oc2ccccc2)c1	63	26	19	-1	3	-4	-27	.
Nc1cccc(-n2nncc2-c2ccc(Cl)cc2)c1	.	.	-2	3	.	.	.	i
O=C1C=C(c2n[nH]nc2-c2ccccc2)C[C@@H](c2ccc(F)cc2)C1	.	11	.	.	2	-2	-4	.
C#CCNC(=O)C1=C[C@@H](c2ccc(C#C)cc2)[C@H](CCCO)[C@@H](OCC)O1	3	-9[16.7 µM]	-1	-3	4	6	-9&-10	i
Cc1ccccc1S(=O)(=O)Cc1ccc(C(=O)NCCN2CCCCC2C)o1 (configuration not stated)	11	.	-1	-3	5	7	7	i
Cc1nn2c(-c3cccc(NC(=O)CSc4nc5ccccc5o4)c3)nnc2c2ccccc12	0	.	-15	6	12	-2	-19	i
Cc1ccc2c(CN3CCN(C(=O)c4ccco4)CC3)cc(=O)oc2c1C	-16	8	0	29	0	-2	8	i
CC1=Nc2ccccc2/C1=C/c1c(N)n2c(S(=O)(=O)C(C)C)nsc2nc1=O	-5	-28	1	-7	6	5	-19	.

Later entries
SMILES	CSC inhib	Env fusion inh	eIF4H FP inh	PABP FP inh	MT1-MMP act inh	MT1-MMP act inh RFP	UUG fidelity	Rce1 inhib	others
CCCCCc1ccc(-c2cn(Cc3cccc(OC)c3)nn2)cc1	21	.	2	8	1	5	-7	i
O=[N+]([O-])c1ccc(O)c(Nc2ncnc3ccc(Br)cc23)c1	72	17	15	9	2	-30	.	i
COc1ccc(OCCCN2CCc3ccccc3C2)cc1	10	-3	-10	-3	.	.	-7	i
CCOc1ccc(N(CC(=O)Nc2cccc(Br)c2)S(C)(=O)=O)cc1	4	14	8	-9	4	-7	-27	i
O=C(CCc1nc2ccccc2s1)NCc1ccccc1F	-11	-6	15	0	-10	-1	.	i
O=C(O)CN1C(=O)NC2(CCOc3ccccc32)C1=O (configuration not stated)	-17	6	-7	7	0	4	-9	i
O=C(c1cnn2c(C(F)(F)F)cc(-c3cccs3)nc12)N1CCN(C(c2ccccc2)c2ccccc2)CC1	21	.	-8	11	0	-3	-22	i
Cc1sc(-c2cccnc2)nc1OC(=O)C1CC1	-1	2	-8	-1	5	7	.	i
CCc1cc2ccc(C)cc2nc1SCC(=O)Nc1cc(C)on1	-9	0	-9	3	-3	-1	.	i
CC(=O)N(c1c(C)n(C)n(-c2ccccc2)c1=O)C1(C(=O)NC2CCCC2)CCCCC1	-14	.	-4	-3	-2	2	-7	i
COCCc1nc2ccc(C(=O)N3CCCC(CCCO)C3)cc2o1 (configuration not stated)	-4	-11	-10	-6	-4	-2	-1	i
CCSc1nnc2c(n1)OC(C)(C)Nc1ccccc1-2	-4	.	-3	10	0	2	-4	i
COc1ccc(-n2c(C)cc(/C=C/c3nc(O)c([N+](=O)[O-])c(=O)[nH]3)c2C)cc1	-14	-8	46	-5	-3	-5	.	i
CN(C)/C=C1\N=C(c2ccccc2)OC1=O	-10	-39	-1	1	4	1	-13	i
FC(F)(F)c1cc(-c2ccccc2)nc(-n2cc(Cl)cn2)n1	11	-7	-11	-4	0	-3	-17	i
O=c1oc(-c2ccccc2F)nc2scc(-c3ccccc3)c12	12	64*	-1	14	1	-1	16	i
NC(=O)c1nsc(C(=O)N(CC(=O)NC2CCCCC2)Cc2ccc(F)cc2)c1N	8	-6	-17	2	-1	-3	0	.
CCOC(=O)SC1=N/C(=C\c2ccc(N(C)C)cc2)C(=O)S1	2	.	111*	116*	-44	-3	.	i	eIF4H FP inh retest=62*;PABP FP inh retest=66*
COc1ccc2[nH]c(=O)c(CNc3ccccc3OC)cc2c1	-19	-4	21	21	-1	2	0	i
C[C@@H]1CN([C@@H](C)CO)C(=O)CCCn2nncc2CO[C@H]1CN(C)C(=O)Nc1cccc2ccccc12	.	2	.	.	-3	-1	-10&7&2	.
O=C(NCc1ccccc1Cl)C1CCN(S(=O)(=O)N2CCC3(CC2)OCCO3)CC1	2	.	4	-5	1	4	.	i
CCCCC1=CC2=C(c3ccco3)C(=O)C(C)(OC(=O)c3ccc(OC)cc3)C(=O)C2=CN1CCc1ccccn1 (configuration not stated)	1	14	?	?	-31	2	1	i
COCCn1c(N)c(Sc2ccc(Cl)cc2)c(=O)[nH]c1=O	-6	11	-1	0	-2	3	-4	i
Fc1c(F)c(F)c(SCn2cc(Br)cn2)c(F)c1F	-9	.	.	.	-3	-8	-5	.
CC(C)Nc1nc(Nc2ccc(F)cc2)c2sccc2n1	.	17	.	.	-1	-6	-9	.

Following part
SMILES	CSC inhib	Env fusion inh	eIF4H FP inh	PABP FP inh	MT1-MMP act inh	MT1-MMP act inh RFP	UUG fidelity	Rce1 inhib	others
O=C(Nc1cccc(C(F)(F)F)c1)c1csc(-c2ccncc2)n1	7	13	-7	-1	1	-3	.	i
COc1ccc(NC(=O)CCNC(=O)c2ccco2)c(OC)c1	-9	-5	-6	4	-4	-1	-5	.
CCN(CC)c1nc(-c2ccc(C(=O)NN)cc2)nc(-c2ccc(C(=O)NN)cc2)n1	-6	1	-7	-2	4	10	-20	i
CC(C)Sc1nnc(CNC(=O)C23CC4CC(CC(C4)C2)C3)n1Cc1ccccc1	46	-1	-6	-11	-6	-7	-9	i
Cc1cccc(-c2nc(CS(=O)CC(=O)N3CCc4ccccc4C3)c(C)o2)c1 (configuration not stated)	13	.	12	14	-6	2	-3	i
COc1ccc(N2C(=O)c3ccc(C(=O)OC(C)C)cc3C2=O)cc1	-5	-44	-12	-3	-6	-6	-17	.
COc1ccccc1CNC1CCCc2ccccc21 (configuration not stated)	-11	-8	-4	-12	-1	-2	1	i
COc1ccc(C2=NOC(C(=O)N3CCOCC3)C2)cc1OC (configuration not stated)	-3	.	-12	-11	4	7	-17	i
